# Screening results: PubChem, several laboratories
# PABP polyA inh – PABP-poly(A) binding inhibition; P11940; PABP-poly(A) RNA binding, fluorescence polarization; inhibition, % at 35 µM; hit rate 1% among 290,000;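 active = 50% or more with normal probe brightness, or confirmed in later tests; inconclusive = above 50% with abnormal brightness, or retests that disagree; inactive = below 50% or failed in later tests; about a fifth of its hits are not listed in these tables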;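 also: calls also rest on retests at 20 µM and on dose response follow-up; controls were probe without protein and protein plus probe with vehicle; some compounds called inactive have numbers as strong as hits; many hits fall short of the cut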
# Target sequence (P11940 whole entry, looked up): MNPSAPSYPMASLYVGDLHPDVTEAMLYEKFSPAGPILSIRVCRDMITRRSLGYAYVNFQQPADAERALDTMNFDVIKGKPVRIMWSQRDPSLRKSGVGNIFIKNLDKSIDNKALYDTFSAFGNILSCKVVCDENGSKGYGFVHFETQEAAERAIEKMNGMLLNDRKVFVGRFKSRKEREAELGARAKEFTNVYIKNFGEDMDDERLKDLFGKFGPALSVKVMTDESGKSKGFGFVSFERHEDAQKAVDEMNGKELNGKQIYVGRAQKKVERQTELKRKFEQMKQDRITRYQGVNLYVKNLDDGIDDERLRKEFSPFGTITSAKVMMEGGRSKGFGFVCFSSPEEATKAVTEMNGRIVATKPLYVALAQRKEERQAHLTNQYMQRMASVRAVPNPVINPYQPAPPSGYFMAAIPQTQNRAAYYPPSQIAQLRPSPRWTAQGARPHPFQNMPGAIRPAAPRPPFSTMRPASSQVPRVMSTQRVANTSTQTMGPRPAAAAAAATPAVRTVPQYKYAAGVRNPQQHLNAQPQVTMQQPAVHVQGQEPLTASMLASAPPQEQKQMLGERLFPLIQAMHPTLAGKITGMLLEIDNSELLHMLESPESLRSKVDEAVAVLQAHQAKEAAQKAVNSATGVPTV
# Rce1 inhib – inhibitors of yeast Ras-converting enzyme; Q03530; hit rate 0.27% among 290,000; yeast membranes, quenched prenylated peptide cleavage fluorescence; calls only; AID 2563;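 active = fall in fluorescence gain of 50% or more versus controls, with final raw signal at or below 3038400; inconclusive = same 50% fall but final raw signal above 3038400; inactive = fall in fluorescence gain under 50%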;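 also: plate controls were neutral control wells for no effect and wells lacking membranes for full effect; tested at 10 µM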
# Target sequence (Q03530 whole entry, looked up): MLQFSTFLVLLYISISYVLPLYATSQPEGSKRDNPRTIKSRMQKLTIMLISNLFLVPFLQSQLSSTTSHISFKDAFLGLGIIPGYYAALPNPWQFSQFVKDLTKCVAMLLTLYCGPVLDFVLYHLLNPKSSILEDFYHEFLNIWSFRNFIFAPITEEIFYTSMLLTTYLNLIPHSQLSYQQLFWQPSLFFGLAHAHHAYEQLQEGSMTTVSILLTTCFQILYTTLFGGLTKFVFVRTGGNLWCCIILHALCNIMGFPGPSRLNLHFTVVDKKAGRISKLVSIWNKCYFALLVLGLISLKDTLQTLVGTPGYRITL
# HIV Env fusion – blocks HIV Env-driven cell-cell fusion. HeLa-JRFL Env/CEM21 cell fusion, luciferase. inhibition, % at 12.3 µM. hit rate 1.1% among 360,000. AID 651610;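 active = mean replicate inhibition score of at least 50 and every replicate individually at or above 50; inconclusive = only one of the two criteria met; inactive = mean below 50 and not all replicates reaching 50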;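 also: 0% = plate neutral controls and 100% = maraviroc near 300 nM; one replicate is shown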
# CSC inhib – cancer stem cell inhibition | cancer stem cell-like cells viability, luminescence | inhibition, % at 7.5 µM | hit rate 1.1% among 300,000 | AID 2717;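 active = mean at 75% or more and at least half the replicates too; inconclusive = mean and replicates disagree; tested in HMLE shEcad cells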;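 also: 0% = median of negative and 100% = median of positive control wells; the first replicate is given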
# UUG fidelity – yeast start codon fidelity modulation; hit rate 0.13% among 350,000; activity score, % at 18.7 µM; S. cerevisiae UUG-firefly luciferase reporter, luminescence/redox ratio;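 active = replicate mean at a twofold rise or more, about +100% in these data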;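 also: firefly luciferase made from a UUG start codon reports start codon fidelity; reporter light over untreated wells divided by growth signal over untreated wells; some hits fall short of that in this replicate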
# eIF4H FP inh – inhibitors of RNA binding by human eIF4H | eIF4H fluorescence polarization binding assay | hit rate 0.94% among 290,000 | AID 2012 | Q15056 | inhibition, % at 35 µM;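 active = 50% or more with normal probe brightness, or confirmed in later tests; inconclusive = above 50% with abnormal brightness, or retests that disagree; inactive = below 50% or failed in later tests; about a fifth of its hits are not listed in these tables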;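 also: calls also rest on retests at 20 µM and on dose response follow-up; 0% = protein and probe with vehicle and 100% = probe without protein; strong numbers were not always called active; many hits fall short of the cut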
# MT1-MMP act inh – MT1-MMP (human) activation inhibition; AID 651647; HT1080 RFP-PRO-GFP cells, GFP/RFP ratio fluorescence, overnight; percent of plate control window, DMSO zero; hit rate 0.061% among 360,000; GFP/RFP ratio change, % at 20 µM;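 active = GFP/RFP ratio change of at least 30% with cell ATP level not reduced by more than half and red fluorescence within 50% of control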; also: strong numbers were not always called active
#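 system = RFP-PRO-GFP reporter HT1080 cells | dosing = 20 µM single dose, 1% DMSO | timing = overnight cell settling, then overnight compound exposure, 37 °C, 5% CO2 | read-out basis = GFP/RFP fluorescence ratio | controls = DMSO and RFP-L50D-GFP cell wells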
# MT1-MMP act inh RFP – second read-out of MT1-MMP act inh, no call of its own (marks repeat the call); RFP signal change, %; measured here: RFP expression control read;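 0 = vehicle wells; hits needed this value within 50% of zero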
# * hit, by the source's call; i = inactive; ? = inconclusive; / = no result given.
SMILES,PABP polyA inh,Rce1 inhib,HIV Env fusion,CSC inhib,UUG fidelity,eIF4H FP inh,MT1-MMP act inh,MT1-MMP act inh RFP
CCOC(=O)c1ccc(-n2c(C)nc3c(cnn3-c3ccccc3C)c2=O)cc1,-10,i,7,2,2,-6,-1,-3
CCOC(=O)C1=C(COC(=O)/C=C/c2cc(OC)c(OC)c(OC)c2)NC(=O)NC1C (stereo unspecified),0,i,/,-8,-9,10,7,-4
O=C(O)COCC(=O)Nc1ccc(-n2cnnn2)cc1,9,i,-6,-10,/,-1,3,6
O=C(CN1C(=O)c2ccccc2S1(=O)=O)NC1CCCCC1,2,i,12,-2,7,0,2,3
O=C(CNC(=O)c1ccc(Br)o1)Nc1ccncc1,/,i,/,-3,-13,/,0,0
CN(C)c1ccc(CN2CCC(C(N)=O)CC2)cc1,6,i,5,-10,/,4,1,8
CCOc1ccc2nc(N=NC3=C(O)CC(C)(C)CC3=O)sc2c1,0,i,19,25,/,-1,11,-1
CC(C)(C)c1ccc(C(=O)N2CCC(=O)N(C(COCc3ccccc3)Cc3ccccc3)CC2)cc1 (stereo unspecified),15,i,41,24,-3,0,-1,-6
CCOc1ccc(-c2nc(C#N)c(N3CCN(C)CC3)o2)cc1,-7,i,/,13,-16,-3,9,2
O=C1CCN(Cc2ccc([N+](=O)[O-])cc2)CCN1[C@H](CO)Cc1ccccc1,2,i,13,8,-17,-6,-3,-3
COc1ccc2cc3c(N)nn(C(=O)c4cccc(F)c4)c3nc2c1,4,i,?,-22,/,-19,-10,-11
COc1ccc(-c2cc(C(=O)NCc3ccccc3)no2)cc1OC,6,i,-31,9,-10,-6,2,1
O=C(O)c1ccccc1C(=O)c1ccc(N2CCOCC2)c([N+](=O)[O-])c1,12,i,4,-6,7,2,5,5
O=C(c1cccc(Oc2ccc([N+](=O)[O-])cc2)c1)N1CCOCC1,14,i,11,-9,-14,3,4,-2
CC(=O)Nc1ccc(-c2csc(NC(=O)CC(NC(C)=O)c3ccccc3)n2)cc1 (stereo unspecified),-5,/,14,10,-11,0,0,2
CCCN1CCN(C(=O)CCn2c(=O)c3cccn3c3cccnc32)CC1,4,i,3,-5,-1,3,-2,2
Cc1sc(NC(=O)c2cccs2)nc1-c1ccccc1,-10,i,-67,14,-17,-4,-40,-40
CC(=O)Nc1ccc(NC(=O)CSc2nnc(-c3cccs3)n2C)cc1,6,i,-5,/,-19,-3,0,2
CN=C(C)/C(C(=O)OC)=C(/O)c1c(F)cccc1F,1,/,-3,-2,/,-8,3,3
CCN(CC(=O)Nc1ccc(OC)cc1)C(=O)c1ccc2ccccc2c1,/,/,-9,-1,-11,/,-1,-2
O=C(NCC(=O)N(Cc1cccs1)C(C(=O)NC1CCCC1)c1ccncc1)c1ccco1 (stereo unspecified),23,i,-9,/,-11,13,3,11
COc1ccc(OC)c(/C=N/NC(=O)CNC(=O)c2ccc(S(=O)(=O)N3CCOCC3)cc2)c1,-16,i,/,-5,/,-1,-3,3
Nc1c(C(=O)N2CCCCCC2)oc2ccccc12,-7,i,-2,-4,-12,-4,4,-1
CCOC(=O)C1Cc2c([nH]c3ccccc23)C(C)N1 (stereo unspecified),5,i,/,-5,-18,-9,4,1
CCCCn1nc2cc(C(=O)NCc3ccc(OC(F)(F)F)cc3)ccc2c1OC,-1,i,-10,4,-13,2,0,-4
C/C(=N\NC(=O)COc1ccc([N+](=O)[O-])cc1)c1ccco1,/,/,-1,-10,-8,/,-3,-1
Cc1ccc(CN2[C@@H](Cc3ccccc3)C(=O)CS2(=O)=O)cc1,/,/,15,8,-4,/,-3,4
O=S(=O)(NCCc1nc2ccccc2[nH]1)c1ccccc1,/,/,1,/,-26,/,-2,2
CS(=O)(=O)N(CC(=O)NCCSc1ccccn1)c1ccc(F)cc1,6,i,4,2,/,2,1,4
Cc1nn(Cc2ccccc2Cl)c(C)c1NC(=O)c1ccn(C)n1,-6,i,-5,4,-2,-6,1,3
COc1ccc(CNC(=O)CSc2ncn[nH]2)cc1,6,i,/,7,-8,7,3,7
Cc1cc(C(=O)NCc2ccccc2F)cs1,34,i,-13,-11,-8,-6,6,3
CCOc1ccccc1NC(=O)c1ccccc1-c1nc(-c2ccccc2)no1,0,i,-42,35,-12,0,0,-7
COC(=O)c1ccc(COC(=O)c2ccc(SC)cc2OC)cc1,3,i,-38,-5,0,2,0,-2
CC(=O)c1cccc(NC(=O)COC(=O)c2cccc(N3C(=O)c4ccccc4C3=O)c2)c1,-2,i,-80,-6,6,-8,0,6
Cc1cc(F)ccc1NS(=O)(=O)c1c(C)nc2scc(C)n2c1=O,0,/,2,-12,-4,-2,0,1

# Profiles, looked up by structure. Order of values: PABP polyA inh | Rce1 inhib | HIV Env fusion | CSC inhib | UUG fidelity | eIF4H FP inh | MT1-MMP act inh | MT1-MMP act inh RFP
# Results for CS(=O)(=O)N(CC(=O)NCCSc1ccccn1)c1ccc(F)cc1 → 6 | i | 4 | 2 | / | 2 | 1 | 4
# Results for CC(=O)c1cccc(NC(=O)COC(=O)c2cccc(N3C(=O)c4ccccc4C3=O)c2)c1 → -2 | i | -80 | -6 | 6 | -8 | 0 | 6
# Results for CCCCn1nc2cc(C(=O)NCc3ccc(OC(F)(F)F)cc3)ccc2c1OC → -1 | i | -10 | 4 | -13 | 2 | 0 | -4
# Results for COc1ccc(CNC(=O)CSc2ncn[nH]2)cc1 → 6 | i | / | 7 | -8 | 7 | 3 | 7
# Results for Cc1cc(F)ccc1NS(=O)(=O)c1c(C)nc2scc(C)n2c1=O → 0 | / | 2 | -12 | -4 | -2 | 0 | 1

# (cont.)
SMILES,PABP polyA inh,Rce1 inhib,HIV Env fusion,CSC inhib,UUG fidelity,eIF4H FP inh,MT1-MMP act inh,MT1-MMP act inh RFP
Cc1cc(C)nc(SCc2nnc(SCC(=O)Nc3cc(C(F)(F)F)ccc3Cl)o2)n1,5,i,/,4,-8,6,1,-1
CC1Cc2ccccc2N1C(=O)c1ccc2c(c1)nnn2C (stereo unspecified),4,i,/,-5,-6,-3,-4,-10
O=[N+]([O-])c1ccc(N2CCSCC2)cc1O,-9,i,-4,-7,-8,6,3,2
O=C(N/N=C/c1c[nH]c2ccc(Br)cc12)C1CC1,3,i,-2,-6,/,-3,5,-3
Cc1nnc(SCC(=O)N2CCN(S(=O)(=O)c3ccc(Cl)cc3)CC2)[nH]c1=O,11,i,/,0,-2,-11,8,4
O=C(Cc1ccccc1)NNC(=O)c1ccc(NC(=O)c2ccccc2)cc1,0,i,-28,-4,-18,0,0,3
CCC1CCCCN1c1ccc([N+](=O)[O-])cc1/C=N/NC(=O)Cn1c2ccccc2c(=O)c2ccccc21 (stereo unspecified),42,i,-77,0,/,42,-8,-8
CC(=O)c1ccc(NC(=S)N2CCN(S(=O)(=O)c3ccc(F)cc3)CC2)cc1,-4,i,4,-34,-21,-3,-2,-1
CC1CC(=O)N(CC(=O)NC2CCCCC2)c2ccccc2S1 (stereo unspecified),5,i,-4,-12,0,-6,2,6
CCCc1cc(NC(=O)COC(=O)c2ccc(O)cc2O)n(-c2ccccc2)n1,/,/,23,-2,-3,/,1,-16
N#CCCN(C(=O)COC(=O)CCN=C1NS(=O)(=O)c2ccccc21)c1ccc(F)cc1,/,i,4,-7,-7,/,1,2
O=C(c1ccco1)N1CCN(C(=O)c2ccc(CS(=O)c3cccc(Cl)c3)o2)CC1 (stereo unspecified),-1,i,-9,-7,-1,-3,0,5
N#Cc1ccccc1OCC(=O)NCC(c1ccc(F)cc1)N1CCOCC1 (stereo unspecified),/,/,2,/,-8,/,4,1
Cc1ccc(OCCCSc2n[nH]c(N)n2)cc1,-4,i,-2,4,/,-8,-1,-3
CN(c1cccc(NC(=O)Cc2ccccc2)c1)S(C)(=O)=O,-9,i,-4,/,-7,6,6,1
c1csc(CNc2ccn3nc(-c4ccc(OCCN5CCOCC5)cc4)cc3n2)c1,/,/,5,/,-5,/,3,-4
O=C(c1ccc(Cl)c(S(=O)(=O)N2CCCCCC2)c1)N1CCCC(C(F)(F)F)C1 (stereo unspecified),/,i,6,-8,-7,/,-1,-18
O=C(O)CN1C(=O)/C(=C\c2cc(Br)ccc2OCc2ccccc2F)SC1=S,16,i,-1,54,-13,2,-4,1
Nc1nc(Cl)nc2c1ncn2C1CCC(CO)O1 (stereo unspecified),/,/,10,/,-4,/,8,10
CN(C)c1[nH]c(=O)c(C#N)c2c1CCN2Cc1ccccc1,-12,i,/,-1,-11,3,-2,-2
N/C(=N\OC(=O)Nc1ccccc1)c1ncc(C(F)(F)F)cc1Cl,1,i,/,4,-22,-6,4,5
CC(NC(=O)c1ccco1)C(c1cccs1)N1CCN(c2ccccc2F)CC1 (stereo unspecified),-3,i,/,-2,0,-11,-1,-5
O=C(CCCc1c[nH]c2ccccc12)NCc1ccccc1C(F)(F)F,3,i,-2,21,4,-7,1,1
CC1CCCC(NC(=S)NC(=O)c2ccco2)C1C (stereo unspecified),/,/,-4,-5,-11,/,-1,-2
O=C1NC(=Nc2cccnc2)S/C1=C\c1cccc(F)c1,16,i,-8,21,-21,8,-23,-2
CCCCCN(C(=O)CCC(=O)OCCOc1cccc(Cl)c1)c1c(N)n(CCCC)c(=O)[nH]c1=O,/,i,18,-6,/,/,-11,-14
CCCNC(=O)CN1CCN(c2cc3ccccc3c(Cl)n2)CC1,25,i,14,-8,-3,23,-1,1
CCOC(=O)c1cc(-c2ccccc2)n(CC(=O)Nc2cccc(OC)c2)c1C,-8,i,5,-22,-13,-14,-2,-1
O=c1c2ccccc2nc2n1CCCS2,3,i,-21,-33,-11,-3,2,2
O=C(NCCCN1CCOCC1)c1ccc(-n2nc(C(F)(F)F)cc2-c2cccs2)cc1,-16,i,17,7,4,-2,-6,-8
CCOC(=O)C(C(=O)OCC)C(=O)c1cccc2ccc3ccccc3c12,/,/,10,/,-14,/,1,3
Cc1c([N+](=O)[O-])ccc(S(=O)(=O)N2CCC(C(N)=O)CC2)c1C,4,i,-9,3,/,6,2,9
CCn1cc(CNc2nc3nonc3nc2N2CCCCC2)cn1,4,i,0,-11,-24,-3,-2,3
COc1ccc(-c2ccc(C(=O)Nc3cccc(C(F)(F)F)c3)c3occc23)c(C)c1,/,/,-1,/,-14,/,-2,-11
CCOc1ccc(NC(=O)Cc2ccccc2)cc1,2,i,/,0,-16,3,5,-2
C/C(=N\NC(=O)c1nnn(-c2nonc2N)c1CN(C)c1ccccc1)c1ccc(O)cc1,-7,i,3,10,7,-15,-5,0
COc1ccc(NC(=S)NC(=O)/C=C/c2cccs2)cc1,-5,i,7,-9,/,-15,1,-7
Cc1nn(CC(=O)NCC(C)c2ccccc2)c(=O)c2cc(-c3ccccc3)nn12 (stereo unspecified),8,i,2,6,-14,-16,-2,-6
O=C(NCc1ccccc1)c1c(Cl)nc(Cl)c(Cl)c1Cl,-4,i,6,68,/,3,-22,-16
CC(NC(=O)/C(=C/c1ccc2c(c1)OCO2)NC(=O)c1cccc([N+](=O)[O-])c1)C(=O)O (stereo unspecified),16,i,0,-14,/,6,-1,0
CC(C)C(c1nnnn1C(C)(C)C)N1CCOCC1 (stereo unspecified),-2,i,20,3,-14,1,-3,4
COc1ccc(-c2nnn(CC(=O)NCc3ccc4c(c3)OCO4)n2)cc1OC,-6,i,13,-3,/,-6,4,-2
O=C(O)c1cc(-c2cccs2)nc2ccc(F)cc12,10,i,5,-8,-1,2,-2,2
COc1cccc(NC(=O)C(=O)N/N=C/c2ccc3c(c2)OCO3)c1,-10,i,-13,-10,15,-4,-2,-2
